Screens (PubChem BioAssay)
TRPML1 inh: inhibitors of human TRPML1 channel; TRPML1-inducible cells, Ca2+ dye fluorescence, FDSS; stronger effect = lower value; inhibition of EC80 agonist-evoked calcium signal; activity change, negative = inhibition, % (no concentration beside the values); hit rate 0.02% among 390,000; in the data active means activity change below about -50%; inconclusive means about -30% to -50%; inactive means above about -30%;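 further: stimulus is agonist 54-4 at its EC80 concentration; on the % scale 0 is the no-effect control and ±100 the full control effect; compound concentration not given in the record; the text of the record puts the active cut at -80%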
Target sequence (Q9GZU1 whole entry, looked up): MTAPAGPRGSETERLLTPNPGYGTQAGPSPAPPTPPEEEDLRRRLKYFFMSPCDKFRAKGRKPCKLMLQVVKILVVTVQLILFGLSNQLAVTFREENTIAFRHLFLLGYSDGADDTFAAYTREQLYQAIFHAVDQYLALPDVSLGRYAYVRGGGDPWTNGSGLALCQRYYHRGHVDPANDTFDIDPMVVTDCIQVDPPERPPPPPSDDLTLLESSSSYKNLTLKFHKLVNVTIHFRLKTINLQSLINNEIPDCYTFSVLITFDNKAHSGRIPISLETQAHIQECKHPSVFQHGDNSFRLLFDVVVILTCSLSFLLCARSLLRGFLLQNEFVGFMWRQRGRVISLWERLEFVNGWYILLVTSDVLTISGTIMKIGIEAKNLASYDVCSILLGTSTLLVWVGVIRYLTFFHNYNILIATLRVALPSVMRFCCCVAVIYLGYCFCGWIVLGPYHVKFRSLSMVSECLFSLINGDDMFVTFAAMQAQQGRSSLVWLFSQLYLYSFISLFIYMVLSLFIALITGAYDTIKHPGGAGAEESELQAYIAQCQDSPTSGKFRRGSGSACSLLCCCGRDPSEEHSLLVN
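Calcium fluorescence in TRPML1-DL cells induced overnight with Tet: a 110 s read after compound pin addition, then a 110 s antagonist read after challenge with 54-4 at 4 uM final (EC80).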
CtBP-E1A blk: CtBP/E1A binding inhibition; hit rate 0.49% among 340,000; activity change, % (concentration not given with the values); AID 651724; AlphaScreen GST-E1A/His-CtBP binding, 1536-well; stronger effect = lower value; control for the full effect not named in the record; in the data active means activity change below about -65%; inconclusive means about -30% to -65%; inactive means above about -30%; further: on the % scale 0 is the no-effect control and ±100 the full control effect
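Protein mix (5X: 125 nM each GST-E1A, His-CtBP) was incubated with pinned compound 2 h at 37 deg C in dark, in 50 mM Tris pH 8.0 buffer with 300 mM NaCl. Glutathione donor and nickel acceptor beads followed; AlphaScreen signal read after 1 h.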
D2 agonist: agonists of human D2 dopamine receptor (beta-arrestin); hit rate 0.084% among 360,000; activation, % (concentration not given with the values); P14416; DiscoveRx PathHunter D2 beta-arrestin, luminescence, 90 min; 100% = 57 uM dopamine signal; AID 624465; in the data active = activation above about 40%; inconclusive = about 15% to 40%; inactive = below about 15%; further: compound concentration not given in the record; the text of the record calls up to 30% inactive
Target sequence (P14416 whole entry, looked up): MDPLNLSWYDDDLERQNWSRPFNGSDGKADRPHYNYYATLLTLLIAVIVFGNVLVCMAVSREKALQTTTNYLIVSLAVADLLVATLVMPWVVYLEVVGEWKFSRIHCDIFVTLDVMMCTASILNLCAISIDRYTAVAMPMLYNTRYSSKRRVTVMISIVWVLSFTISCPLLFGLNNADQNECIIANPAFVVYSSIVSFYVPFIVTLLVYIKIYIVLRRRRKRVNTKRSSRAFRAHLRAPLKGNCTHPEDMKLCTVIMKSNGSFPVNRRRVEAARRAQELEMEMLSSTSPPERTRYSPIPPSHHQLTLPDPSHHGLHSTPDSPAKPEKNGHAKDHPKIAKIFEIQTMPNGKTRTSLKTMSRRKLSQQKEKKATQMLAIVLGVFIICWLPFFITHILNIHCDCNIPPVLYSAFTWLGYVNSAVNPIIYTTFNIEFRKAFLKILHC
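DiscoveRx PathHunter D2 beta-arrestin cells (2,100/well) attached overnight, then compound-stimulated 90 min at 37 C in HBSS/10 mM HEPES/0.1% Tween-20 buffer; beta-galactosidase complementation read by luminescence after 1 h at ambient temperature. Dopamine 57 uM final (EC100) as control.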
PINK1 modulator: changes PINK1 expression | hit rate 0.2% among 410,000 | AID 624263 | PINK1 immunofluorescence, high-content cytometry, 24 h | Potency, µM (highest dose often 76.6 µM), inactives show at the highest dose activation (PINK1 increase), hits mostly activators; active = well fitted activation curve with a large enough effect; inconclusive = small, poorly fitted or top-dose-only effect; inactive = flat fitted curve, though single readings scatter; cell line not stated here;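 further: potency means the concentration at half of the fitted maximal effect; % of control where 0% means no effect; nearly all actives have a fitted effect of over 65% in size; a mitochondrial uncoupler was the plate control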
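PINK1 protein level read as immunofluorescence by microplate cytometer in a fixed, stained stable cell line after 24 h exposure to five compound concentrations, with CCCP as control.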
Six1-Eya2 blk: inhibitors of human Six1/Eya2 interaction; Q15475+O00167; AlphaScreen GST-Six1/His-Eya2 binding, biochemical; stronger effect = lower value; control for the full effect not named in the record; activity change, % (test concentration not listed); hit rate 0.56% among 360,000; in the data active = activity change below about -65%; inconclusive = about -30% to -65%; inactive = above about -30%; further: on the % scale 0 is the no-effect control and ±100 the full control effect; compound concentration not given in the record
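Homogeneous AlphaScreen proximity assay pairing GST-Six1 with His-tagged Eya2 (added as 5X mix: 250 nM and 500 nM) in 50 mM Tris pH 8.0, 300 mM NaCl, 1 mM TCEP. Glutathione donor and nickel acceptor beads; 1 h, 37 °C, dark.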
TRPML1 agonist: activates the human TRPML1 channel; Q9GZU1; TRPML1-expressing cells, Ca2+ dye fluorescence, FDSS; host cell line not named in the record; reference of the full effect not given here; activation, % (test concentration not listed); hit rate 0.12% among 410,000; in the data active = activation above about 50%; inconclusive = about 30% to 50%; inactive = below about 30%; further: 0% is about no effect; the text of the record puts the active cut at 80%
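In this qHTS format, compounds were pin-transferred onto Ca8-dye-loaded TRPML1-DL cells induced with Tet overnight, and intracellular Ca2+ fluorescence was recorded kinetically for 110 s after a 10 s baseline. A subsequent 4uM final 54-4 (EC80) addition followed by a second 110 s read served as the antagonist phase.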
Active calls of the source: *; ? = inconclusive; . = not tested or not shown; & = joins results of further samples; [ ] = another dose, or the depositor's remark.

SMILES | TRPML1 inh | CtBP-E1A blk | D2 agonist | PINK1 modulator | Six1-Eya2 blk | TRPML1 agonist
O=C1C(=Nc2cccc(Cl)c2)CC(c2ccc(Cl)cc2)N1c1cccc(Cl)c1 (stereo not drawn) | 7 | . | -3.6 | 1.1% | 6 | 1.1
O=C(Cc1ccc(F)cc1)Nc1nnc(SCC(=O)N2CCCCC2)s1 | -1 | -13 | -0.2 | 0.1% | -13 | 1.0
COc1cc(CC(=O)OCC(=O)Nc2ccc(N3CCOCC3)cc2)cc(OC)c1OC | -1 | 5 | -8.0 | -0.4% | 2 | -0.5
CCCc1[nH]n(-c2ccc(F)cc2)c(=O)c1C=NCC1CCCO1 (stereo not drawn) | -15 | 2 | -0.9 | 1.5% | 0 | -0.9
CCOC(=O)c1ccc(NC(=O)C(Cc2ccccc2)N2Cc3ccccc3C2=O)cc1 (stereo not drawn) | -1 | . | . | 1.6% | . | 2.3
COc1ccc(OC)c(CNC(=O)C2CCN(S(=O)(=O)N3CCCCC3)CC2)c1 | -9&7 | -15 | -4.6 | -1.1%&-1.0% | 3 | -0.6&-0.5
Cc1ccccc1NS(=O)(=O)c1ccc2[nH]cc(C(=O)N3CCCC3)c(=O)c2c1 | -1 | . | . | -0.7% | . | 1.5
CC1=C(C(=O)Nc2ccccc2)C(c2cc(CN3CCOCC3)cs2)C2=C(CCCC2=O)N1 (stereo not drawn) | -3 | 19 | -1.6 | 1.8% | -14 | -0.4
CC(C(=O)N1CCc2ccccc2C1)N(c1ccccc1)S(C)(=O)=O (stereo not drawn) | 4 | 3 | -1.5 | -1.1% | 0 | -0.6
C/C(=N\NC(=O)c1ccccc1)c1ccc(-n2ccnc2)cc1 | 16 | . | -4.8 | 0.2% | 9 | 0.7
COc1cc(C(=O)NCC(c2ccccc2)N(C)C)ccc1OCC(=O)N1CCOCC1 (stereo not drawn) | 4 | 7 | -3.5 | 0.3% | -12 | 0.6
CCOc1cccc2sc(N(CCN(C)C)C(=O)/C=C/c3cccs3)nc12 | 4 | -1 | -3.2 | -1.6% | -3 | -1.0
Cc1ccc(C(=O)Nc2ccc3c(c2)CCC3)cc1 | -4 | -14 | -8.7 | -1.6% | -8 | 1.7
NCCCC[C@H]1CNC(=S)N1CCc1cccc(F)c1 | 3 | -1 | -1.6 | 0.4% | 0 | -0.4
Clc1ccc(-c2nc3ncccn3c2Cl)cc1 | 0 | 0 | -1.8 | 1.0% | 3 | -0.8
CCOc1cc(C(=O)OCC(=O)Nc2cc(C)on2)ccc1OCC(C)C | 31 | 9 | -3.4 | 4.6% | -1 | 1.6
CN(C)c1ccc(C(C(=O)NCC2CCCO2)N(C(=O)c2snc(C(N)=O)c2N)c2ccc3c(c2)OCO3)cc1 (stereo not drawn) | -3 | -24 | -4.3 | 1.2% | -1 | 0.6
COc1cc([C@H]2[C@@H]3CCCC[C@]3(O)CCN2CC(=O)Nc2ccc(C)cc2C)ccc1O | -5 | 5 | 0.1 | 0.7% | 7 | -0.2
COc1ccc(N(C)S(=O)(=O)c2cccc3nsnc23)cc1 | -3 | -3 | 2.6 | 0.4% | -13 | -0.6
C=CC[C@H](CC(=O)OC(C)(C)C)C(=O)OC[C@@H]1CCCN1C(=O)[C@@H](CC=C)CC(=O)NCCO | 4 | 6 | -6.2 | -1.1% | -4 | -0.8
O=C(NCCNC1CCC(c2ccccc2)CC1)c1cccs1 (stereo not drawn) | -15 | 1 | -2.1 | 2.1% | 7 | 1.5
Cc1nn(C)cc1C(=O)Nc1ccccc1Br | 4 | -19 | -8.1 | -1.3% | 3 | -0.4
Cn1cc([N+](=O)[O-])c(C(=O)N/N=C/c2cc3c(cc2Br)OCO3)n1 | -22 | -1 | -2.5 | -0.2% | 4 | -0.5
COc1ccc(NC(=O)Cc2ccc(Cl)cc2)cc1S(=O)(=O)N1CCCCC1 | 5 | -10 | 6.6 | 4.1% | -4 | 1.0
COc1ccc(NC(=O)N2CCc3ccccc32)cc1 | -20 | -4 | -2.7 | -1.2% | 0 | -0.8
COc1ccc(OC2CCN(S(=O)(=O)c3ccc(OC)c(OC)c3)CC2)cc1 | . | -5 | 1.8 | -1.3% | 0 | .
COc1cc2cc(CCO)oc(=O)c2cc1OC | -1 | -2 | -3.8 | 0.7% | -2 | -0.4
COc1cc2c(cc1OC)CN(Cc1cc(=O)oc3cc(C)c(C)cc13)CC2 | -13 | 1 | 1.7 | -0.5% | -11 | 1.1
O=C1CC(NS(=O)(=O)c2cccnc2)CN1c1cccc(F)c1 (stereo not drawn) | -11 | 4 | -0.1 | 1.6% | 1 | 0.2
COc1ccc(CC(=O)N2CCN(c3ccccc3OC)CC2)cc1OC | 10 | -4 | -0.7 | -0.6% | 4 | 0.6

Record cards, as listed above. Screens in order: TRPML1 inh, CtBP-E1A blk, D2 agonist, PINK1 modulator, Six1-Eya2 blk, TRPML1 agonist
Results for `COc1cc2cc(CCO)oc(=O)c2cc1OC` : -1, -2, -3.8, 0.7%, -2, -0.4
Results for `Cc1nn(C)cc1C(=O)Nc1ccccc1Br` : 4, -19, -8.1, -1.3%, 3, -0.4
Results for `O=C(NCCNC1CCC(c2ccccc2)CC1)c1cccs1` (stereo not drawn) : -15, 1, -2.1, 2.1%, 7, 1.5
Results for `COc1cc2c(cc1OC)CN(Cc1cc(=O)oc3cc(C)c(C)cc13)CC2` : -13, 1, 1.7, -0.5%, -11, 1.1
Results for `COc1ccc(CC(=O)N2CCN(c3ccccc3OC)CC2)cc1OC` : 10, -4, -0.7, -0.6%, 4, 0.6

Remaining list, next part:
SMILES | TRPML1 inh | CtBP-E1A blk | D2 agonist | PINK1 modulator | Six1-Eya2 blk | TRPML1 agonist
Cn1c(=O)[nH]c(=O)c2c1nc(NCc1ccco1)n2CCCc1ccccc1 | 13 | 0 | -4.3 | -0.1% | -6 | 0.1
O=C(CSc1n[nH]c(-c2cccs2)n1)N1CCCc2ccccc21 | -6 | 4 | -1.4 | 3.0%[38.3 µM] | -1 | -0.2
CN1N=C2c3ccccc3CCC2C1c1ccc(F)cc1 (stereo not drawn) | -4 | 0 | -2.8 | 2.4% | -2 | -0.4
CC(C)Oc1ccc(CNC(=O)c2sc3ncccc3c2-n2cccc2)cc1 | -9 | . | . | 1.0% | . | 17
CCC(C)c1ccc(OCC(=O)O)cc1 (stereo not drawn) | -18 | 7 | -3.0 | -0.8% | 2 | -0.5
Cc1cc(OCC(=O)NC(Cc2ccc(Cl)cc2)C(=O)O)c2c(C)c(C)c(=O)oc2c1 (stereo not drawn) | . | -25 | -7.7 | -0.9% | -11 | .
CC(C)NC(=O)NC(=O)COC(=O)c1cccc(OC(F)F)c1 | 20 | 12 | -1.6 | 2.3% | -2 | 1.5
COc1ccc(-c2nnn(CC(=O)N(C3CCCC3)C(C)C(=O)NC3CCCC3)n2)cc1OC (stereo not drawn) | 1 | 4 | 0.8 | -1.4% | 0 | 0.1
COc1ccc(CCNC(=O)Nc2cccc([N+](=O)[O-])c2)cc1 | -4 | -2 | -1.3 | 0.1% | -6 | 0.9
Cc1ccc(-c2nonc2NC(=O)c2ccco2)cc1C | -9 | . | . | 2.7% | . | 2.3
CNC(=S)Nc1cccc(C(C)=O)c1 | . | 3 | -2.9 | 3.2% | 3 | .
Cc1ccc(N2CCN(/N=C/c3ccccc3)CC2)cc1 | -8 | -8 | -0.1 | 0.6% | -8 | 1.0
COc1ccc(Cn2c(=O)[nH]c3cc(C(=O)Nc4ccccc4C)ccc32)cc1 | 0 | 0 | 0.1 | 3.4% | 12 | 0.3
O=C(O)[C@H]1CC=C[C@H]2CCN(Cc3ccc(Cl)c(Cl)c3)C(=O)[C@@H]12 | -3 | 2 | -0.7 | 2.6% | -1 | -0.2
O=C(Oc1ccc2c(=O)c(Cl)coc2c1)c1cccnc1 | -5 | -12 | -2.6 | -3.8% | -16 | 0.4
Cn1c2c(c3ccccc31)CCN=C2c1ccccc1 | -5 | -3 | -1.5 | 1.8% | -16 | -0.6
CCCN(CC(=O)Nc1ccccc1C)C(=O)/C=C/c1ccc(S(=O)(=O)N2CCCCCC2)cc1 | 3 | -1 | -2.7 | -0.2% | -10 | 0.4
O=C1NC(=O)C(=Cc2ccco2)S1 | 3 | 0 | 0.4 | 1.3% | 5 | -0.3
O=C(Nc1ccc(-c2csc(Nc3cccc(C(F)(F)F)c3)n2)cc1)c1ccccc1 | -4 | 0 | 1.2 | 1.4% | -5 | -0.7
C[C@@H]1CN([C@@H](C)CO)C(=O)c2cc(C#Cc3cccc(F)c3)cnc2O[C@@H]1CN(C)CC1CCOCC1 | -7 | 3 | -5.0 | 2.4% | 4 | -0.4
CC1(C2CCC3C4CCC5CC6(CCC5(C)C4C(=O)CC32C)OCCO6)OCCO1 (stereo not drawn) | 5 | -16 | -0.4 | -1.3% | -21 | 2.6
CCOc1ccc(N2C(=O)CS/C2=N/NC(=O)COc2ccc3ccccc3c2)cc1 | -13 | -10 | -1.4 | -0.4%[38.3 µM] | -3 | 1.6
O=C1NC[C@@H](c2ccccc2)OC(=O)[C@@H](Cc2ccc(F)cc2)CC/C=C/C[C@H]1CC(=O)N(CCO)Cc1ccccc1 | ? | 0 | 13 | -0.8% | 16 | 5.7
CCOC(=O)N1CCN(S(=O)(=O)c2ccc(C)c(C(=O)NC3CCCCC3)c2)CC1 | -7 | 3 | -3.0 | 7.2% | 0 | 0.2
Cc1c(CC(=O)O)c(=O)oc2cc(OCc3ccc(Cl)cc3)ccc12 | -11 | -1 | -3.7 | -2.6% | -8 | -0.8
C=CCNc1nc(NCCOc2ccccc2Cl)c2sc(-c3ccccc3)cc2n1 | . | -23 | 4.3 | ? | 14 | 0.3
O=C1c2ccccc2NC(c2ccc(Br)s2)N1O (stereo not drawn) | -6 | . | -5.9 | 0.4% | -3 | -0.8
O=C(CNc1ccc(F)cc1)N/N=C1\CCc2ccccc21 | 3 | -12 | -2.0 | 3.9% | 6 | -0.2
O=C(Nc1cccc2cccnc12)c1cccc(Cl)c1 | 22 | 38 | -5.8 | 1.9% | 26 | 1.0
Cc1cc(C)c2nc(N3CCCN(C(=O)c4cnccn4)CC3)c(C#N)cc2c1 | 30 | -13 | -2.1 | -2.2% | -8 | 0.0
Clc1ccc(SCNc2ccccc2Cl)cc1 | -5 | . | 1.7 | -0.6% | 4 | 3.8
COc1ccc(-n2nc(C)c3onc(C)c3c2=O)cc1 | 8 | 5 | -2.4 | 0.8% | 6 | -0.6
O=C(/C=C/c1cccs1)c1ccc(Br)cc1 | 3 | -1 | -0.4 | 4.7% | 5 | 1.8
COc1ccccc1CCC(=O)N(CCC1=CCCCC1)c1c(N)n(Cc2ccccc2)c(=O)[nH]c1=O | -4 | -17 | -0.3 | 1.8% | 2 | 0.7
COc1ccc(OC)c(N(CC(=O)NC2CCCC2)S(=O)(=O)c2ccc(OC)c(OC)c2)c1 | -5 | 13 | -0.8 | 0.5% | 0 | -0.7

No enrichment for hits. About 1% of those tested had a hit in this group.
